# Source: PubChem (several laboratories)
# Vif TR-FRET – inhibitors of Vif binding to APOBEC3G peptide, primary screen, biochemical, TR-FRET, GST-Vif 1-94, biotin-A3G peptide, dose response retest (AID 1117319) | Virion infectivity factor (Human immunodeficiency virus type 1 group M subtype B (isolate … | TR-FRET GST-Vif / biotin-A3G peptide binding; higher % means a stronger effect; test concentration not given here; strong numbers were not always called active | one-dose inhibition, %; IC50 in µM for titrated hits | 0.57% of 260,000 active;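 active = above the screen mean plus three standard deviations and confirmed in dose response; inconclusive = results disagree or hit not tested in dose response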;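 note: Vif residues 1-94 fused to GST binding biotinylated APOBEC3G peptide 110-148; 0% = full assay without inhibitor and 100% = GST in place of GST-Vif; retest series ran down from 100 µM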
# FGF22 binding – binders of human FGF22 protein, primary screen, FGF22 synaptogenesis inhibitor project, biophysical, thermal shift, single point; Fibroblast growth factor 22 (Homo sapiens), Q9HCT0; recombinant FGF22 thermal shift, SYPRO orange fluorescence; percent of sucrose octasulfate shift, DMSO zero; calls only at 9.99 µM; 1.5% of 340,000 active; AID 651658, 2012;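 active = melting point raised past a set limit in the mean and every replicate; inconclusive = no clear call; three in four hits are not shown here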
# Target sequence (Q9HCT0 whole entry, looked up): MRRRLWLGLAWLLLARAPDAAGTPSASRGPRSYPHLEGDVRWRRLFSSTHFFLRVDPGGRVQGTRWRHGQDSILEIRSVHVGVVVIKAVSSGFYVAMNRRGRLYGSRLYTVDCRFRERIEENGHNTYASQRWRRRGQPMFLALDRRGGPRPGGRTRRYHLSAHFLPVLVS
# ALR inh – inhibitors of human ALR sulfhydryl oxidase, primary screen, biochemical, H2O2 detection, HRP-luminol luminescence, single point. inhibition, % (test concentration not listed). 3.8% of 290,000 active. purified ALR, DTT oxidation;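 active = mean and each replicate at 75% or more; inconclusive = only one of the two met; inactive = neither met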;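 note: stock transfer was 7.5 nL into about 7.5 µL; 0% = neutral wells and 100% = wells with inactivated enzyme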
# Target sequence (P55789 whole entry, looked up): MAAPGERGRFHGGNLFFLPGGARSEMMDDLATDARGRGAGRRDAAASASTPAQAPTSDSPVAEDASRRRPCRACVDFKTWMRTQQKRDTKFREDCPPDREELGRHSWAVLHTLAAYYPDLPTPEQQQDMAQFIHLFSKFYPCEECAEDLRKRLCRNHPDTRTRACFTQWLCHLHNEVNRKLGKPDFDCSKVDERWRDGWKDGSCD
# rRNA inh HTS – reduced GFP signal of wild-type E. coli, primary screen, bacterial rRNA inhibitor project, GFP/RFP fluorescence, OD600, single point; AID 720706, 2013; GFP signal change (wild-type ribosome), % (concentration not given with the values); 1.6% of 350,000 active; E. coli WT GFP vs humanized-ribosome RFP mutants, 24 h; hits give low values; DMSO median 0, no signal -100;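 active = significant combined selectivity score with lowered wild-type GFP, culture density cut under 30%, mutant RFP and density less affected; inactive = any of these conditions unmet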; note: one replicate is shown; some compounds called inactive have numbers as strong as hits
# AF4-AF9 inh – inhibitors of AF4 peptide binding to AF9, primary screen, biochemical, AlphaScreen, biotin-AF4 peptide, FLAG-AF9, single point; Protein AF-9 (Homo sapiens), P42568; inhibition, % at 10 µM; 0.47% of 350,000 active;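 active = every replicate reaching a set inhibition limit, whatever the replicate mean, cut at about 25% in these data; inconclusive = mean inhibition reaches that limit but some replicates miss it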;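 note: 0% = plate neutral control median and 100% = total signal loss; the record names both 10 and 1 µM as test concentration; the first replicate is given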
# Ecoli growth – E. coli growth inhibition, primary screen, OD600. 0.21% of 330,000 active. AID 1053175, 2014. OD600 absorbance (test concentration not listed). Escherichia coli growth, 23 h; hits give low values;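 active = OD600 absorbance below the run mean of sample wells minus 3.6 SD, in any replicate, cut at about 0.56 in these data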;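 note: stock transfer was 300 nL into about 60 µL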
# HNF4A DNA FP – change in binding of human HNF4A to DNA, primary screen, biochemical, fluorescence polarization, FITC-DNA. Hepatocyte nuclear factor 4-alpha (Homo sapiens), P41235. 1 h. activity change, % at 10 µM. 0.3% of 360,000 active. AID 1224865, 2016; in the data active = activity change above about 30%, passing the limit was not always enough;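 note: controls were the assay level and a saturating level of protein; the project sought stronger binding though the title names inhibitors; some compounds called inactive have numbers as strong as hits; positive values seem to mean higher polarization but the record does not say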
# Target sequence (P41235 whole entry, looked up): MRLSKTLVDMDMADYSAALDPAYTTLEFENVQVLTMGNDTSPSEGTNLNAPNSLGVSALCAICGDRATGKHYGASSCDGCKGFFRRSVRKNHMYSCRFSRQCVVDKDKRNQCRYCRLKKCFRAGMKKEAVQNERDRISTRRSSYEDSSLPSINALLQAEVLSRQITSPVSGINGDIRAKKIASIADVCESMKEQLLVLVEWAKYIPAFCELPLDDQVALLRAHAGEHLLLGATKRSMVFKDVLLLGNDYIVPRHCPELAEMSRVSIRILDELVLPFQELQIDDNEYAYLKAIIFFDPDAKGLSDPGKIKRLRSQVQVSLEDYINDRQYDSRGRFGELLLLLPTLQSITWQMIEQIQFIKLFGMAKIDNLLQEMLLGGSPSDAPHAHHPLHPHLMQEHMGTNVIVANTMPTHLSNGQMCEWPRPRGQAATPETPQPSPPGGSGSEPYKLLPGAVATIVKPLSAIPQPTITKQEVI
# rRNA inh HTS OD600 – further read-out of rRNA inh HTS, marked with its call; OD600 change, %; measured here: OD600 growth;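 optical density of the mix in the first replicate; 0 = DMSO median and -100 = no signal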
# rRNA inh HTS RFP – further read-out of rRNA inh HTS, marked with its call; RFP signal change, %; measured here: RFP humanized mutant strains;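 first replicate; 0 = DMSO median and -100 = no signal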
# An asterisk follows results filed as active; i = inactive; ? = inconclusive; / = not tested or not shown. These rows are one share of the data; the hit share may differ from the screen's.
SMILES,Vif TR-FRET,FGF22 binding,ALR inh,rRNA inh HTS,rRNA inh HTS OD600,rRNA inh HTS RFP,AF4-AF9 inh,Ecoli growth,HNF4A DNA FP
Cc1snc(SCC(=O)N/N=C(\N)COc2cccc(C(F)(F)F)c2)c1C#N,-4%,/,-18,/,/,/,/,/,0.1
Cc1ccc(S(=O)(=O)c2nc(-c3ccc(F)cc3)oc2SCC(N)=O)cc1,14%,/,-6,/,/,/,/,0.71,-2.7
COc1cccc(Sc2nc(-c3ccccc3)ncc2S(C)(=O)=O)c1,-38%,i,/,7,8,0.5,-1.4,0.68,4.5
N#Cc1cc([N+](=O)[O-])c(-n2nnc3ccccc32)c([N+](=O)[O-])c1,8%,/,-13,/,/,/,/,0.67,1.2
COc1ccc(S(=O)(=O)N2CCCCN3[C@@H](CO)[C@H](c4ccc(-c5cccnc5)cc4)[C@@H]3C2)cc1,/,i,/,-6,-9,-0.8,-2.5,/,/
Cc1c(/C=C(\C#N)c2nn(-c3ccccc3)c(N)c2C#N)c2ccccc2n1Cc1ccc(F)cc1,18%,/,0,/,/,/,/,0.68,23
O=C(c1cc(-c2ccc(Cl)cc2)nc2ccccc12)N1CCC1,-7%,i,-6,-7,-7,-2.3,5.2,0.71,1.9
CCc1c(C)c2nncn2[nH]c1=O,3%,/,-4,/,/,/,/,0.71,2.5
CCc1ncc(/C=C2\C(=O)Nc3ccccc32)[nH]1,-16%,i,-1,-16,3,-4.5,3.2,/,6.4
CN(C)C(=O)c1cccc(-c2ccc([C@H]3[C@@H](CO)N4CCCCN(S(C)(=O)=O)C[C@H]34)cc2)c1,/,i,/,4,14,0.2,-5.0,/,/
O=C(CSc1oc(-c2ccccc2)nc1S(=O)(=O)c1ccccc1)NCC1CCCO1 (stereo not drawn),/,i,-5,4,11,-0.4,2.0,0.63,0.0
Cc1ccc(Cn2ncc3c(NCCN(C)C)ncnc32)cc1,/,i,-7,20,18,-1.1,-0.5,0.67,0.1
CC(C)N(C[C@@H]1N[C@@H](CO)[C@H]1c1ccccc1)C(=O)CN1CCOCC1,/,i,/,5,16,0.8,-0.8,/,/
CC1CCCCC1NC(=O)CSC1=Nc2ccccc2C2CC=NN12 (stereo not drawn),/,i,48,6,10,-0.6,-0.2,0.7,4.3
FC(F)(F)c1nc(N2CCCC2)ncc1-c1nnnn1-c1ccccc1,-1%,/,0,/,/,/,/,0.68,3.1
CN(C)c1ccc(C(=S)NCc2ccco2)cc1,9%,/,17,/,/,/,/,0.75,5.0
Cc1c(NC(=O)c2cc3ccccc3oc2=O)c(=O)n(-c2ccccc2)n1C,15%,/,-9,/,/,/,/,0.66,0.1
CCC1CCCCN1CCCNC(=O)c1c(O)nc2cc(C)ccn2c1=O (stereo not drawn),/,i,-7,7,10,-0.1,-4.5,0.63,4.0
COCCNCC(=O)Nc1ccc(C)c(S(=O)(=O)N2CCCCC2)c1,17%,i,-30,3,0,-6.3,2.4,0.65,-3.2
C=CCNS(=O)(=O)c1ccc2c(c1)n(C)c(=O)n2C,/,i,-17,19,20,2.6,-3.4,0.69,-1.1
Cc1cc(NC(=O)c2ccc(Cl)cc2)n(-c2ccccc2)n1,0%,i,/,-6,1,1.3,-1.9,0.67,2.0
Cc1nc2nc[nH]n2c(=O)c1NS(=O)(=O)c1ccc(C(C)(C)C)cc1,4%,i,13,9,11,0.3,-0.3,0.65,1.4
CC(C)N(CC(N)=O)c1ccc(S(=O)(=O)N2CCCC2)cn1,3%,i,6,6,10,-0.4,0.1,0.72,-0.9
O=C(Nc1ccc(N2CCN(C(=O)c3cccs3)CC2)cc1)c1ccc(Br)o1,/,i,/,-9,-20,5.0,-1.8,0.65,1.0
C[C@@H]1CN([C@@H](C)CO)C(=O)c2cccc(NC(=O)NC3CCCCC3)c2O[C@H]1CN(C)S(=O)(=O)c1cn(C)cn1,/,i,/,-1,6,1.8,-2.5,/,/
CCc1nnc(NC(=O)C(NC(=O)c2ccccc2Cl)C(C)C)s1 (stereo not drawn),-6%,i,1,13,3,0.8,-2.0,0.75,-3.3
Cc1cc2ccccc2cc(C)c1=O,3%,/,-4,/,/,/,/,0.66,2.6
N#C[C@H]1[C@H](c2ccccc2-c2ccc(F)cc2)[C@H](CO)N1c1ncc(-c2ccccc2)s1,/,i,/,-2,10,-1.8,-2.6,/,/
COc1ccc(-c2nc(C#N)c(N3CCC(C)CC3)o2)cc1,-11%,i,-1,3,3,-0.7,0.8,0.69,1.0
COc1ccc(OCCCC(=O)OCC(=O)Nc2ncc(Cl)cc2Cl)cc1,13%,i,/,14,14,0.2,-4.0,0.66,-12
COCCNCCOc1ccccc1-c1ccccc1,?,/,18,-6,-12,-3.1,/,0.67,2.6
CCN1CCN(CC(=O)Nc2sc3c(c2C#N)CCC(C)C3)CC1 (stereo not drawn),6%,/,8,/,/,/,/,0.68,0.2
CO[C@@H]1CN(C)C(=O)c2cc(NC(=O)NC(C)C)ccc2OC[C@H](C)N(Cc2ccccc2)C[C@@H]1C,/,i,/,-1,8,-4.7,-0.3,/,/
COCCN(C(=O)COC(=O)Cc1coc2cc3c(cc12)CCC3)c1c(N)n(Cc2ccccc2)c(=O)[nH]c1=O,14%,i,50,-14,-24,-2.2,1.9,0.72,-5.8
Cc1ccc(S(=O)(=O)N/N=C\c2cc([N+](=O)[O-])ccc2Cl)cc1,7%,i,53,15,-2,-3.0,0.6,/,0.8
CC(=O)N(C)C[C@H]1Oc2ncc(-c3ccc(C)cc3)cc2C(=O)N([C@@H](C)CO)C[C@H]1C,/,i,/,2,7,-0.6,-5.0,/,/
CCCCn1c(N)c(N(CC(C)C)C(=O)C2CCCN(C(=O)c3ccc(Cl)cc3)C2)c(=O)[nH]c1=O (stereo not drawn),1%,i,-12,4,4,-2.6,0.0,0.69,3.4
Cc1ccc(S(=O)(=O)N[C@H]2CC[C@H](CC(=O)NCCCN(C)C)O[C@@H]2CO)cc1,/,i,/,0,2,0.1,-18,/,/
CCNS(=O)(=O)c1ccc(NC(=S)NCc2ccco2)cc1,2%,/,/,/,/,/,/,0.65,-0.7
N#C/C(=C(/O)COC(=O)CCC1CCCCC1)c1nc2ccccc2[nH]1,-5%,/,2,/,/,/,/,/,4.0
O=C(NCc1ccco1)/C(=C/c1ccc(C(F)(F)F)cc1)c1nc2ccccc2[nH]1,10%,/,4,/,/,/,/,0.73,14
CCN1C(=O)[C@H]2[C@@H](c3ccc(-c4ccc(Cl)c(Cl)c4)cc3)N[C@@](CC(C)C)(C(=O)OC)[C@H]2C1=O,/,i,1,4,9,0.1,-5.7,/,5.9
Nc1ncnc2c1nc(N1CCCCC1)n2[C@@H]1O[C@H](CO)[C@@H](O)[C@H]1O,/,/,-1,15,16,4.6,/,/,-4.4
Cc1ccc(S(=O)(=O)NC(C)(C)CSc2ccccn2)cc1,8%,/,-15,/,/,/,/,0.72,1.5
CN(C)c1ccc(-c2ccnc3c2CC(C)(C(=O)Nc2cccc(C(F)(F)F)c2)O3)cc1 (stereo not drawn),/,i,/,1,-32,40,4.2,/,6.0
O=C(CN(Cc1ccco1)C(=O)c1cccc(F)c1)Nc1ccccc1C(F)(F)F,-4%,i,-1,-3,-12,-3.3,0.2,0.61,3.7
CC(Sc1nc(-c2ccccc2)cc(C(F)(F)F)n1)C(=O)N1CCCCC1 (stereo not drawn),27%,/,/,/,/,/,/,0.7,0.1
CC(C)Oc1ccc(C(=O)OCC(=O)c2ccc[nH]2)cc1,/,i,/,-1,-22,-4.0,1.7,0.69,2.0
COc1cccc(-c2nnc(SCc3ccccn3)n2C)c1,0%,/,-3,/,/,/,/,0.68,-2.5
COc1cccc(-c2nc(-c3ccc(NC(=O)Cc4ccccc4OC)cc3)no2)c1,5%,/,/,/,/,/,/,0.67,-0.8
Cc1ccc(C)c(N(C(=O)CNC(=O)c2ccco2)C(C(=O)NCC2CCCO2)c2ccccc2)c1 (stereo not drawn),-2%,i,-12,6,15,9.7,-8.2,0.62,2.2
O=c1c2c(ncn2C2CCCC2)n(Cc2ccccc2)c(=O)n1CCOc1ccc(Br)cc1,/,/,-7,/,/,/,/,0.69,1.0
O=C(Oc1c(CN2CCOCC2)cc(Cl)c2cccnc12)c1ccccc1Cl,32%,i,/,-41,-72,-21,17,0.66,2.6
CC1=NN(C(C#N)c2cccc([N+](=O)[O-])c2)C(C)(C)C1 (stereo not drawn),3%,/,-2,/,/,/,/,0.66,-3.8
COCC(=O)Nc1ccc2c(c1)C(=O)N(C)C[C@H](OC)[C@@H](C)CN(Cc1cc(F)ccc1F)[C@@H](C)CO2,/,i,/,-4,-2,1.1,1.4,/,/
Cc1ccsc1/C=N/NC(=O)c1ccc([N+](=O)[O-])cc1,8%,i,-14,9,17,-0.8,-0.6,/,1.6
Cc1nc(SC2C=CS(=O)(=O)C2)n[nH]1 (stereo not drawn),2%,i,1,14,19,2.3,4.3,0.63,-0.1
CCN(C[C@H]1N[C@@](CC)(C(=O)OC)[C@H]2C(=O)N(Cc3ccccc3)C(=O)[C@@H]12)C(=O)c1ccc(C(C)(C)C)cc1,-6%,i,/,-4,-19,0.4,1.2,0.69,3.9
COc1ccccc1C1C2C(=O)N(c3ccccc3)C(=O)C2ON1c1ccccc1 (stereo not drawn),0%,/,-1,/,/,/,/,0.67,3.4
CCC(Oc1ccc(Cl)cc1)C(=O)N1CC(=O)Nc2ccccc21 (stereo not drawn),/,i,-4,-18,-10,1.1,1.0,0.73,0.3

# Single records, from the list above:
# CC(C)N(C[C@@H]1N[C@@H](CO)[C@H]1c1ccccc1)C(=O)CN1CCOCC1 across the screens: Vif TR-FRET: /; FGF22 binding: i; ALR inh: /; rRNA inh HTS: 5; rRNA inh HTS OD600: 16; rRNA inh HTS RFP: 0.8; AF4-AF9 inh: -0.8; Ecoli growth: /; HNF4A DNA FP: /
# CCN1CCN(CC(=O)Nc2sc3c(c2C#N)CCC(C)C3)CC1 (stereo not drawn) across the screens: Vif TR-FRET: 6%; FGF22 binding: /; ALR inh: 8; rRNA inh HTS: /; rRNA inh HTS OD600: /; rRNA inh HTS RFP: /; AF4-AF9 inh: /; Ecoli growth: 0.68; HNF4A DNA FP: 0.2

# New compounds follow
SMILES,Vif TR-FRET,FGF22 binding,ALR inh,rRNA inh HTS,rRNA inh HTS OD600,rRNA inh HTS RFP,AF4-AF9 inh,Ecoli growth,HNF4A DNA FP
C[C@@H]1CN([C@@H](C)CO)C(=O)c2cc(C#Cc3ccccc3)cnc2O[C@@H]1CN(C)S(=O)(=O)c1ccccc1F,/,i,/,0,-5,2.7,-6.4,/,/
Cc1noc(N)c1C(=O)Nc1ccc(F)cc1,3%,/,-17,/,/,/,/,0.78,2.9
COc1cccc(/C=N/NC(=O)CCn2c3ccccc3c3ccccc32)c1,15%,i,-3,0,6,-2.8,-7.6,/,-0.8
C/C(=N\NC(=O)Cc1c(Cl)cccc1Cl)c1cccnc1,/,i,-9,1,7,-1.5,-0.1,/,1.2
C[C@@H]1CN([C@H](C)CO)S(=O)(=O)c2ccc(-c3ccc(C(=O)N(C)C)cc3)cc2O[C@@H]1CN(C)C(=O)C1CCOCC1,/,i,/,2,9,-2.9,-4.3,/,/
O=C(Cc1cc(=O)[nH]c(=O)[nH]1)NCC1CCCO1 (stereo not drawn),74%,i,13,10,12,0.6,0.3,0.74,-1.3
